H5N1 CPE – MDCK cell protection from H5N1 avian flu. AID 740. inhibition, % at 50 µM. cytopathic effect, luminescence, 72 h; stronger effect = higher value; no value below 0 was filed and about half of the inactive calls have no number; reference of the scale not given here. 96,000 compounds, 0.07% hits; in the data active means inhibition above about 25%
Numbers without * were called inactive; i = inactive.

SMILES | H5N1 CPE
Cc1cc2c(cc1C)NC1(C(=O)Nc3ccccc31)C1=C(CC(C)(C)CC1=O)N2 (stereo unspecified) | 1.0
CCOC(=O)c1ccc(COC(=O)CCc2nc3ccccc3[nH]c2=O)o1 | i
CC(C)(C)NC(=O)c1cccc(NC(=O)c2ccc(NC(=O)c3ccco3)cc2)c1 | i
CCn1ccnc1C(O)c1cccc(OC)c1 (stereo unspecified) | i
CCC(=O)Nc1c(C#N)c2nc3ccccc3nc2n1C1CCCCC1 | 0.1
Cc1ccc(NC(=O)c2cc(N3CCOCC3)nc3ccccc23)cc1 | i
CC[N+](CC)(CC)CCCOC(=O)C(O)(c1ccccc1)C1CCCCC1 (stereo unspecified) | 1.0
CC(=O)c1cccc(NC(=O)C2CCCN2S(=O)(=O)c2cccc3nsnc23)c1 (stereo unspecified) | 2.7
COCCn1nnnc1CN(Cc1ccco1)Cc1cc2cc3c(cc2[nH]c1=O)OCO3 | 1.2
Nc1c(C(=O)NC2CC2)c2nc3ccccc3nc2n1-c1ccc2c(c1)OCO2 | i
COC(=O)c1ccccc1N1C(=O)C2C(C1=O)[C@H]1C=C[C@@H]2C1 (stereo partly specified) | i
O=C(Nc1cccc2ccccc12)NC1CCCc2ccccc21 (stereo unspecified) | i
COc1cccc(NC(=O)N2CCC(C(=O)Nc3ccc(C)cc3C)CC2)c1 | i
O=C(Nc1ccc2nc(-c3ccc(Br)o3)[nH]c2c1)c1ccco1 | i
COc1ccc(CCN2CC34C=CC(O3)C(C(=O)NCc3ccccc3)C4C2=O)cc1OC (stereo unspecified) | 2.6
CCCCCc1c(O)c2ccccc2[nH]c1=O | 1.4
COc1cccc(-c2cc(C(F)(F)F)n3nc(C(=O)N4CCC5(CC4)OCCO5)cc3n2)c1 | 0.8
CCCn1c(SCC(=O)NCCc2ccc(Cl)cc2Cl)n[nH]c1=O | 0.4
CCC1CCC(NC2CCCCNC2=O)CC1 (stereo unspecified) | 0.3
Cc1ccc(CNC(=O)c2ccc(CN3CCOCC3)cc2)cc1 | 0.4
CC(/C=N/N1CCN(c2ccccc2)CC1)=C\c1ccccc1 | i
C=CCn1c(SC(CCO)C(=O)NCc2ccco2)nc2sc3c(c2c1=O)CCC3 (stereo unspecified) | 0.6
CCSC1=N/C(=C\c2ccc(-c3ccccc3[N+](=O)[O-])o2)C(=O)S1 | i
Cc1ccc(OCn2c(=O)sc3ccccc32)cc1 | i
Cc1cccn2c(=O)c(C=Nc3ccccc3)c(NCCO)nc12 | i
O=C(CCCCCN1C(=O)CCC1=O)Nc1ncn[nH]1 | 3.4
CCOC(=O)C(CC)n1cnc2c(cnn2-c2ccc(Cl)cc2)c1=O (stereo unspecified) | i
Cn1c(SCC(=O)N2CCN(S(=O)(=O)c3ccccc3)CC2)nc2ccccc21 | 1.1
O=C(c1cn(CC(=O)N2CCCC2)c2ccccc12)C1CCCCC1 | i
CC12CCC(C(=O)NCCN3CCCCC3)(CC1=O)C2(C)C (stereo unspecified) | i
Oc1c(Cl)cc(Cl)cc1C=Nc1ccc(Br)cc1 | i
COc1ccccc1N1CCN(C(=O)CN(c2cc(C)cc(C)c2)S(C)(=O)=O)CC1 | 0.2
COc1ccc(-n2c(Cc3cccn3C)nnc2SCC(=O)Nc2ccccc2C)cc1 | 0.8
COc1ccc2[nH]c3c(NCCN4CCCCC4)ncnc3c2c1 | i
CC(C)OCCCNc1nc2c([nH]1)c(=O)n(C)c(=O)n2C | i
O=C(OCc1nc(-c2ccccc2)oc1COC(=O)c1ccco1)c1ccco1 | 1.0
CC(=O)c1cc2c(C)cc(=O)oc2cc1O | 0.8
CC(C)OC(=O)c1ccc(Cn2nnc3ccccc3c2=O)cc1 | i
Cc1ccc(O)c(C2=NOC(O)(C(F)(F)C(F)F)C2)c1 (stereo unspecified) | i
OCCOc1nnnn1-c1ccccc1 | i
COc1ccccc1CC(NC(C)=O)C(=O)NC1CCN(c2nnnn2-c2ccccc2)CC1 (stereo unspecified) | i
COc1ccccc1-c1cc(C(=O)NCc2cccs2)no1 | 0.1
COc1ccccc1S(=O)(=O)Cc1ccc(C(=O)NCCN2CCCC2)o1 | i
Cc1nn(C(=O)c2cccs2)c(N)c1-c1ccccc1 | i
CC(C)NC(=O)c1ccc(N2CCOCC2)nc1 | i
CC(/C=C/c1ccccc1)=N\Nc1nc(-c2ccccc2)cs1 | i
CCOC(=O)c1cnc(SCC(=O)Nc2sc(C)c(C)c2C#N)nc1N | i
CC(C)Nc1nnc(SCC(=O)c2c(N)n(Cc3ccccc3)c(=O)n(C)c2=O)s1 | 0.3
COCCNC(=O)c1c[nH]c2ccc(OC)cc2c1=O | 0.9
O=C(COc1ccccc1Cl)Nc1nc(-c2cccs2)cs1 | i

More records follow.
SMILES | H5N1 CPE
O=C(Nc1nnc(SCc2ccccc2Cl)s1)C1COc2ccccc2O1 (stereo unspecified) | 1.3
Cc1[nH]n(-c2ccccc2)c(=O)c1CCOC(=O)c1ccc(C(F)(F)F)cc1 | i
CC1(C)C2CCC(C2)C1(C)NC(=O)CN1CCOCC1 (stereo unspecified) | 0.1
CC(N=C1NS(=O)(=O)c2ccccc21)c1ccccc1 (stereo unspecified) | 0.4
CCC1CC2CC(NC(C)=O)C1C2 (stereo unspecified) | i
COc1ccc(CCNC(=O)C2CCN(S(=O)(=O)c3cccc4nsnc34)CC2)cc1OC | 0.1
CC1(C)N=C(C(=O)c2ccccc2)N(O)C1(C)O (stereo unspecified) | 0.3
O=c1cc(C(F)(F)F)nc(-c2ccccc2)[nH]1 | 0.7
CCOC(=O)c1ccc(NC(=O)CCc2ccc(CC)o2)cc1 | i
COC(=O)c1ccc(S(=O)(=O)N2CCCCC2)o1 | i
CC(C)c1ccc(NC(=O)CSc2nnc(-c3ccccn3)n2C)cc1 | i
Cc1ccc(CN(c2ccc(C(=O)N3CCOCC3)cc2)S(C)(=O)=O)cc1 | 1.0
COc1cc(NC(=O)c2cnn3c(C)cc(C)nc23)c(OC)cc1Cl | i
COCCCNCC(=O)Nc1sc(C)c(C)c1C(=O)OC | i
CCN=C1Sc2nc3ccc(OCC)cc3cc2CN1CCOC | 0.1
CC(C)c1ccc(-c2noc(C3CCCN(C(=O)c4ccc(F)cc4F)C3)n2)cc1 (stereo unspecified) | i
Cc1cc(SCNC(=O)c2ccccc2)ncn1 | i
Oc1[nH]c2ccccc2c1C=NCC1CCCO1 (stereo unspecified) | 0.8
O=S(=O)(c1ccccc1)c1ccccc1/C=N\O | 0.5
O=C(CN1CCOCC1)Nc1cccc(C(=O)Nc2cccc(C(F)(F)F)c2)c1 | 5.0
COc1ccc(C(=O)Nc2scc(-c3ccc(Cl)cc3Cl)c2C(N)=O)cc1 | 0.1
CC(C)CCOc1ccc(NC(=O)C2OC3OC(C)(C)OC3C3OC(C)(C)OC23)cc1 (stereo unspecified) | 0.3
COc1ccc2oc(=O)c(C(=O)N3c4ccccc4CC3C)cc2c1 (stereo unspecified) | 0.6
CCc1nnc(NC(=O)CSc2nnc(CNc3ccc(Cl)cc3)o2)s1 | i
Cc1ccnc(NS(=O)(=O)c2ccc(NC(=O)C3CCCCC3)cc2)n1 | 0.7
Cc1c(Cl)cnc(NC(=O)COC(=O)C(NC(=O)c2ccco2)C(C)C)c1Cl (stereo unspecified) | 1.9
CN(C)C(=O)CSc1cccc2cccnc12 | 2.4
Cc1nn(-c2ccccc2)c(Cl)c1/C=C1\SC(=S)NC1=O | i
Cc1cccc(S(=O)(=O)C(C#N)c2nc3ccccc3nc2N2CCOCC2)c1 (stereo unspecified) | 1.0
CN(C)C(=O)CSC1c2ccccc2C(=O)N1c1ccccc1 (stereo unspecified) | 1.7

Part of the list above in order of SMILES length, descending:
SMILES | H5N1 CPE
COc1ccc(CCN2CC34C=CC(O3)C(C(=O)NCc3ccccc3)C4C2=O)cc1OC (stereo unspecified) | 2.6
COc1ccccc1CC(NC(C)=O)C(=O)NC1CCN(c2nnnn2-c2ccccc2)CC1 (stereo unspecified) | i
CC(C)c1ccc(-c2noc(C3CCCN(C(=O)c4ccc(F)cc4F)C3)n2)cc1 (stereo unspecified) | i
Cc1c(Cl)cnc(NC(=O)COC(=O)C(NC(=O)c2ccco2)C(C)C)c1Cl (stereo unspecified) | 1.9
COC(=O)c1ccccc1N1C(=O)C2C(C1=O)[C@H]1C=C[C@@H]2C1 (stereo partly specified) | i
COc1ccc(-n2c(Cc3cccn3C)nnc2SCC(=O)Nc2ccccc2C)cc1 | 0.8
COc1cc(NC(=O)c2cnn3c(C)cc(C)nc23)c(OC)cc1Cl | i
CCc1nnc(NC(=O)CSc2nnc(CNc3ccc(Cl)cc3)o2)s1 | i
O=C(c1cn(CC(=O)N2CCCC2)c2ccccc12)C1CCCCC1 | i
Cc1ccc(O)c(C2=NOC(O)(C(F)(F)C(F)F)C2)c1 (stereo unspecified) | i
CC(/C=N/N1CCN(c2ccccc2)CC1)=C\c1ccccc1 | i
COc1ccc2[nH]c3c(NCCN4CCCCC4)ncnc3c2c1 | i
O=C(Nc1cccc2ccccc12)NC1CCCc2ccccc21 (stereo unspecified) | i
O=C(CCCCCN1C(=O)CCC1=O)Nc1ncn[nH]1 | 3.4
COC(=O)c1ccc(S(=O)(=O)N2CCCCC2)o1 | i
Oc1c(Cl)cc(Cl)cc1C=Nc1ccc(Br)cc1 | i
O=S(=O)(c1ccccc1)c1ccccc1/C=N\O | 0.5
CC(C)NC(=O)c1ccc(N2CCOCC2)nc1 | i

Next part:
SMILES | H5N1 CPE
COCCn1c(SCC(=O)Nc2cccc(S(N)(=O)=O)c2)nc2ccccc21 | 0.2
CCCCN1CCc2c([nH]c3ccccc23)C1=O | 1.0
Cn1c(-c2ccc(F)cc2)cnc1NCc1ccccc1 | i
COc1cc(C2C(C#N)=C(N)OC3=C2C(=O)CCC3)c([N+](=O)[O-])cc1OC (stereo unspecified) | i
C=C(C)C1CC=C(CN2CCC(C(=O)OCC)CC2)CC1 (stereo unspecified) | 0.2
CCOc1cc(N2CCOCC2)c(OCC)cc1NC(=O)CCS(=O)(=O)c1ccc(Cl)cc1 | 1.6
C=CCOC(=O)N1CCN(c2cccc(C(F)(F)F)c2)CC1 | 0.4
O=C(O)COCC(=O)Nc1ccc2c(c1)CCC2 | i
CC(C)NC(=O)/C(=N\O)c1ccccc1 | i
CCNc1ccc(S(=O)(=O)C(F)(F)F)cc1NC(=O)C12CCC(CC1)C2 | 0.2
O=c1cc(-c2ccccc2)n(S(=O)(=O)c2ccccc2)o1 | i
Cc1ccccc1OC(C)c1nc(-c2ccccc2)no1 (stereo unspecified) | i
CSc1nc(-c2ccccc2)c(-c2ccccc2)[nH]1 | 0.3
CCOC(=O)c1cc(-c2ccccc2)sc1NC(=O)c1ccc(OC)cc1 | i
Cc1ccc2cccc(Oc3cnccn3)c2n1 | 0.5
COC(=O)CC1C(=O)NC2CCCCC2N1C(=O)c1ccccc1 (stereo unspecified) | 0.2
Fc1ccc(C2=Nn3c(Cc4ccccc4)nnc3SC2)cc1 | 0.1
Cc1ccc2cc(CN(Cc3nnnn3C3CCCC3)C3CCCCC3)c(=O)[nH]c2c1C | i
CC(C)NC(=O)COc1ccc(S(=O)(=O)N2CCOCC2)cc1 | i
CN(C)C(=O)c1ccc(Oc2ccc(C(=O)N(C)C)cc2)cc1 | 1.9
COc1cccc(-c2csc(N3CCN(CC(=O)NNC(=O)c4ccc(Cl)cc4)CC3)n2)c1 | i
Nc1cccc(-c2nc3ccc(N)cc3s2)c1 | i
COc1ccc(-n2c(Cc3cccn3C)nnc2SCC(=O)Nc2ccc(C)c(Cl)c2)cc1 | 1.4
CCOC(=O)C1CCCN(C(=O)c2cc(Nc3ccc(OC)cc3OC)nc3ccccc23)C1 (stereo unspecified) | i
COc1ccc(N/C(=C(/C(Cl)=C(Cl)Cl)[N+](=O)[O-])n2nnc3ccccc32)cc1OC | 0.2
Cc1c(C(=O)N/N=C/c2ccccc2)sc(=S)n1C | i
COc1cnc(SCc2c(Cl)cccc2Cl)nc1Cl | i
O=C(NCc1ccco1)C1(c2ccccc2)CCCC1 | 1.4
CCCn1c(=O)[nH]c(=O)c2c1nc(-c1ccc(OC(F)F)c(OC)c1)n2CCOC | 0.0
Cc1cccn2c(=O)c(C=NCCO)c(NCc3ccco3)nc12 | 18
c1cncc(-c2noc(C34CC5CC(CC(C5)C3)C4)n2)c1 | i
Cc1ccccc1C(=O)c1cccn1CC(=O)O | i
CCOC(=O)c1[nH]c2ccc(OC)cc2c1NC(=O)CN1CCN(c2ccccn2)CC1 | i
O=C(c1ccc(Cl)c(S(=O)(=O)N2CCCCCC2)c1)N1CCN(CCO)CC1 | 1.5
COc1ccc(-c2cc(C(=O)N3CCN(c4ccccn4)CC3)c3ccccc3n2)cc1 | i
Cc1cc(N)n2ncc(-c3ccc(F)cc3)c2n1 | i
CCOc1ccc2nc(SCC(=O)c3ccc(C)s3)sc2c1 | 0.2
CCOC(=O)C(C(=O)Nc1ccc(C)cc1)C1CCCCC1 (stereo unspecified) | i
Cc1ccc(C(=O)Nc2ccccc2C(=O)N2CC3(C)CC2CC(C)(C)C3)cc1 (stereo unspecified) | 1.4
CCc1nnc(NC2=NCCC2)s1 | i
COc1cccc(NC(=O)COc2ccc(N3CC(C(=O)NCC(C)C)CC3=O)cc2)c1 (stereo unspecified) | i
CCC1(CC)C(=O)N(C)C(=O)NC1=NCc1ccccc1 | i
Cc1cccc(NC(=O)CN2CCCN(S(=O)(=O)c3ccc(Br)s3)CC2)c1 | 3.6
Cc1ccccc1NS(=O)(=O)c1cc(C(=O)NCCC2=CCCCC2)ccc1C | i
CN(c1ccc(C(=O)N2CCCCC2)cc1)S(=O)(=O)c1ccccc1 | 1.4
Cc1ccc(C)c(N/C(N)=N/c2nc(C)cc(C)n2)c1 | i
COC(=O)/C=C1\SC(=NC(=O)c2cccc(Cl)c2)NC1=O | i
COc1cccc(CSc2nnc(CSc3nc4nc(C)cc(C)n4n3)s2)c1 | 1.0
Cc1ccc2cc(CN(Cc3ccccc3)Cc3nnnn3C3CCCC3)c(=O)[nH]c2c1 | i
CCn1c(=S)[nH]c2cc(C(=O)OC)ccc2c1=O | 2.4

Continued:
SMILES | H5N1 CPE
COc1ccc(NS(=O)(=O)c2ccc3c(c2)Cc2ccccc2-3)cn1 | 0.8
O=C(NCc1ccco1)c1ccc2ccccc2c1 | 4.5
COC(=O)COc1ccsc1C(=O)OC | i
CCn1cc(C(=O)NC2CCC(C)CC2)c(=O)c2cc(S(=O)(=O)N3CCCCC3)ccc21 (stereo unspecified) | i
CC(C)CNC(=O)CSc1ccc(Cl)cc1 | i

From PubChem

Not all compounds are listed. The share of hits here may be higher or lower than overall.
